# Ba CapD inh: Bacillus anthracis CapD inhibitors, primary screen, biochemical, fluorescence intensity; actives 0.23% (n = 140,000); purified CapD enzyme, fluorescence intensity read-out; hits give low values; some hits fall short of the stated cut; CapD gamma-glutamyltranspeptidase (Bacillus anthracis Ames Ancestor); z-score (concentration not given with the values);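 active = z-score under -4 in either of two replicates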;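 note: stock transfer was 100 nL into about 40 µL; score is relative to mean and spread of the plate; one replicate is shown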
# AID504770: growth inhibition of E. coli YBA685, primary screen, V. cholerae RctB inhibitors; actives 0.27% (n = 130,000); AID 504770, 2011; E. coli YBA685 rctB-dependent plasmid, OD600 growth, 3 h; hits give low values; z-score (test concentration not listed);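 active = z-score under -2 on both plates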;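 note: wells of about 30 µL received 100 nL stock; score is relative to mean and SD of the test wells; the first replicate is given; strong numbers were not always called active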
# The depositor's hits bear a star; i = inactive; . = no result given; & = joins results of further samples. Rows are unselected; overall some 0.37% were active at least once.
# Value order: Ba CapD inh	AID504770
CCOC(=O)c1ccc(NC(=O)/C=C/c2cccc(C(F)(F)F)c2)cc1
  -0.38	-2.1
C1CCOC(CN2CCCC2)OC1
  0.19	0.15
COc1ccc(Nc2oc(-c3ccc(OC)cc3)nc2C#N)cc1
  -0.57	0.65
NC(=O)c1sc(-c2ccc(Cl)cc2)cc1NC(=O)CCC(=O)O
  25	-0.15
Cc1ccc(NS(=O)(=O)c2cccc(C(=O)NN3CCOCC3)c2)cc1
  .	-0.7
COc1ccc(C2Nc3ccc(Cl)cc3C(c3ccccc3)O2)c(OC)c1 (stereo not given)
  -0.11	.
CC(C)NC(=O)COc1ccc(Br)cc1
  -0.79	-0.75
COc1ccccc1NC(=O)Cc1noc(CN(C)Cc2cccs2)n1
  .	-1
O=C(Cn1ncn2nc(-c3ccccc3)cc2c1=O)NCC1CCCO1 (stereo not given)
  0.48	-0.8
CN(C)S(=O)(=O)c1ccc(N=Cc2c(C(F)(F)F)[nH]n(C)c2=O)cc1
  -0.88	.
CCCCC(NC(C)=O)C(=O)NNC(=O)c1c(C)noc1-c1cc(C)on1 (stereo not given)
  -0.57	.
Cc1ccc(CC23CN4CCN(CC(C4)C2=O)C3)c(C)c1
  -0.29	0
CCOC(=O)C1CCN(/C=C(\C#N)S(=O)(=O)c2ccccc2)CC1
  -0.74	-0.75
O=C(NCc1ccco1)/C(=C\c1ccc(Br)cc1)NC(=O)c1ccccc1
  0.84	-0.45
Cc1ccc(S(=O)(=O)N2CCCN(S(=O)(=O)c3ccc(C)c(C)c3)CC2)cc1C
  -0.31	.
Oc1ccc(-c2ccccc2)cc1Br
  -0.09	-2.3
Cn1c(=O)c2c(nc3n(Cc4ccccc4)c(-c4ccc(Br)cc4)cn23)n(C)c1=O
  0.05	.
COc1ccccc1NC(=O)CC(NCc1ccccc1)C(=O)O (stereo not given)
  0.055	0.3
CN1C(=O)/C(=C2/Sc3ccccc3N2c2ccccc2)SC1=S
  -0.65	.
O=C(CN1C(=O)c2ccccc2C1=O)Nc1ccc(S(=O)(=O)Nc2nccs2)cc1
  -0.17	-0.5
CCOc1ccc(NC(=O)CC#N)cc1
  -0.11	-0.1
O=C(NCCc1ccccc1)C1CCCCC1C(=O)OCC(F)(F)F (stereo not given)
  0.21	-0.4
Cc1c2ccc(=O)ccc2c(C)n1C
  .	-0.2
O=C1COc2cc(S(=O)(=O)CCC(=O)N3CCCCCC3)ccc2N1
  -0.64	-0.45
CC(=O)N(Cc1ccccc1)C1CCCc2c1[nH]c1ccc(C)cc21 (stereo not given)
  0.22	1.1
COc1ccc(OCCSc2nc3ccccc3s2)cc1
  -0.45	0.1
CN(C)S(=O)(=O)Oc1ccccc1C(=O)Nc1ccc(F)cc1F
  0.4	.
CCCN(CCC)c1nc(Nc2ccc(Cl)cc2)nc(N2CCOCC2)n1
  -0.46	.
CC(C)NCc1ccc2c(c1)OCO2
  .	-0.7
Cc1nc(-c2ccccc2)sc1C(=O)C1C(c2ccccc2)C1(C#N)C#N (stereo not given)
  0.52	.

# Reformatted as comma-separated lines: two of the compounds above
mol,Ba CapD inh,AID504770
COc1ccccc1NC(=O)CC(NCc1ccccc1)C(=O)O (stereo not given),0.055,0.3
CN(C)S(=O)(=O)c1ccc(N=Cc2c(C(F)(F)F)[nH]n(C)c2=O)cc1,-0.88,.

# The listing picks up, starting 2 compounds before the break.
# Value order: Ba CapD inh	AID504770
CC(C)NCc1ccc2c(c1)OCO2
  .	-0.7
Cc1nc(-c2ccccc2)sc1C(=O)C1C(c2ccccc2)C1(C#N)C#N (stereo not given)
  0.52	.
CN(C)S(=O)(=O)c1ccc2oc(NN)nc2c1
  .	0.05
NC(=O)CSc1nc2ccccc2c(=O)n1-c1ccccc1
  -0.27	-1
Cc1cc(O)c(CN2CCN(C)CC2)c2oc(=O)c3ccccc3c12
  1.3	-0.15
CC(C)CCNC(=O)c1cc2c(=O)[nH]c3ccccc3c2s1
  -0.065	-0.65
Cn1ccc(NC(=O)/C(C#N)=C/c2ccc(Cl)cc2)n1
  -1.4	-1.2
Cc1ccc(N2C(=S)N=C(Nc3cccc(C)c3)C23CCCCC3)cc1
  -0.45	.
C/C(=N\NC(=O)c1cccnc1)c1ccc(Cl)s1
  .	-1.4
O=C1CCCN1c1ccc(C(=O)n2ccnc2)cc1
  1.2	-0.5
N#Cc1c[nH]n2c(NC3CCCC3)c(-c3cccs3)nc12
  -0.3	-0.8
CSCCC(NC(=O)c1ccc(C(F)(F)F)cc1)C(=O)N/N=C/c1cccc(O)c1 (stereo not given)
  0.72	.
CCOC(=O)C1=C(CN2CCC(C(=O)OCC)CC2)NC(=O)NC1c1ccccc1 (stereo not given)
  0.22	0.95
N#CC(C#N)=C(/C=C/c1ccccc1)C1CC1
  -0.07	0.85
Cc1cc(N2CCOCC2)nc2ccc(NC(=S)NCCC(C)C)cc12
  -0.75	1.9
CCOC(=O)C1=C(CC)Nc2ccccc2N=C1N=Cc1c(O)[nH]c(=O)[nH]c1=O
  .	0.15
CCOC(=O)/C=C/c1ccco1
  -1.6	2.3
O=S(=O)(c1ccc(OC(F)(F)F)cc1)N1CCC(O)(c2cccc(C(F)(F)F)c2)CC1
  -0.36	-0.35
O=C(O)/C=C/C(=O)N1CCN(c2ncccc2C(F)(F)F)CC1
  0.84	-0.05
O=S(=O)(c1ccc(Oc2ncnc3c2oc2ccccc23)cc1)N1CCOCC1
  .	0.25
COCCCN1C(=O)/C(=C/c2c(NCCc3ccccc3)nc3ccccn3c2=O)SC1=S
  0.54	.
COc1ccc(Cn2nnnc2CN2CCN(C)CC2)cc1
  .	1.1
O=C1c2ccccc2-c2nc3ncnn3c(-c3ccc4c(c3)OCO4)c21
  .	-0.2
CCOC(=O)CNc1cccc(C(F)(F)F)c1
  0.31	-0.3
COc1ccccc1-c1cc(N)n[nH]1
  -0.015	-0.75
O=c1c(O)c(-c2ccc(F)cc2)oc2cc(Cl)ccc12
  0.95	2
COc1ccc(Br)cc1C(=O)O
  0.48	0.5
CSc1cc(C(C)(C)C)[nH]n1
  0.79	-0.2
NS(=O)(=O)c1cc2c(cc1Cl)NC(C1CC3C=CC1C3)NS2(=O)=O (stereo not given)
  0.69	.
CC(=O)Nc1nc(CC(=O)c2ccccc2)cs1
  i	-0.5
CN(C)c1ccc(C(=O)c2ccccc2C(=O)O)c(O)c1
  -3	0.45
C=CCC1C(C)=NN(C(=O)c2ccc(Cl)cc2)C1(C)O (stereo not given)
  0.16	-0.65
O=C(O)c1ccccc1O
  -0.4	1.4
Cc1ccc(NC(=O)CN(C)c2ccc(C(F)(F)F)cn2)cc1
  .	-0.1
COc1cc(NC(=O)COc2ccccc2F)cc(OC)c1OC
  -0.41	1.4
O=C(NCCc1ccccc1)c1nnc(-c2ccccc2)o1
  0.58	1.6
COC(=O)c1sc2ccccc2c1-n1cccc1C(=O)C(=O)N1CCCC1
  -0.29	.
CCOC(=O)c1nc(N2CCCC(C(=O)OCC)C2)c2c3c(sc2n1)CCCC3 (stereo not given)
  33	.
CN(C)C(=S)Cc1ccc(Cl)cc1
  0.21	0.1
CNS(=O)(=O)Cc1ccccc1CN
  .	-0.35
CCCSc1nnc(-c2c[nH]c3ccccc23)n1CC
  -0.26	1.1
CN1C(=S)NC(C)(C)CC1(C)O (stereo not given)
  .	0.15
Cc1cc(-c2ccc(C)c(S(=O)(=O)N3CCC(c4ccccc4)C3)c2)on1 (stereo not given)
  -0.3	1.2
O=C(CSC1=NCCS1)N1c2ccccc2Sc2ccc(C(F)(F)F)cc21
  -0.65	.
c1ccc(-c2[nH]nc(-c3ccc4c(c3)OCO4)c2-c2nc3ccccc3[nH]2)cc1
  .	0.75
CCc1nnc(NC(=O)CN2C(=O)/C(=C/c3ccc(OC)c(OC)c3)SC2=S)s1
  -0.57	.
CC1(C)CC(NCc2cccnc2)=CC(=C(C#N)C#N)C1
  .	-0.3
CCn1c(O)c(C2=NC(=S)NC2=O)c2ccccc21
  -0.3	-0.25
Cc1nc2ncnn2c(N2CCCCC2)c1Cl
  .	-0.3
CCOC(=O)N1CCC(NC(=O)c2cnn3c(C(F)(F)F)cc(-c4ccc(OC)c(OC)c4)nc23)CC1
  0.64	.
Cc1ccc(C(=O)Nc2nn(C)c3cccc(F)c23)cc1
  -0.52	-0.45
O=C(CCCCCNC(=O)OCc1ccccc1)NC1CCN(Cc2ccc(N3CCCC3)cc2)C1 (stereo not given)
  0.01	.
CCOC(=O)c1cc(C#N)c(SCc2ccc(C(C)(C)C)cc2)nc1N
  71	.
CC(C)(C)c1ccc(C(=O)N2CCN(C(=O)c3ccc4cc[nH]c4c3)CC2)cc1
  0.3	.
CCOC(=O)c1c(NC(=O)CSc2cc(C)c3ccccc3n2)sc2c1CCC2
  -0.02	-0.3
CC1CN(C(=O)CCC(=O)NC2CCCC(C)C2C)c2cc(Cl)ccc2O1 (stereo not given)
  1.2	1
CCOc1ccc(C2(O)CN(c3ccccc3C)C3=[N+]2CCCC3)cc1 (stereo not given)
  0.4	.
COCCCNC(=S)Nc1ccc(C)cc1C
  0.42	.
CC1CN=C(Nc2ccc(F)c(Cl)c2)S1 (stereo not given)
  0	.
CCc1ccc(NC(=O)Nc2cccs2)cc1
  0.77	-1.8
Cc1nn(C(=O)C2CCCN2S(=O)(=O)c2ccccc2)c(C)c1Sc1ccccc1 (stereo not given)
  21	-0.35
CC(C)(C)OC(=O)N1CCC(CNC(=O)c2cccs2)CC1
  -1.6	-0.2

# One compound at a time, from the list above. Values in the order: Ba CapD inh | AID504770
# Profile of `CC1(C)CC(NCc2cccnc2)=CC(=C(C#N)C#N)C1` : . | -0.3
# Profile of `CN(C)C(=S)Cc1ccc(Cl)cc1` : 0.21 | 0.1
# Profile of `Cc1nc2ncnn2c(N2CCCCC2)c1Cl` : . | -0.3
# Profile of `CC(C)(C)c1ccc(C(=O)N2CCN(C(=O)c3ccc4cc[nH]c4c3)CC2)cc1` : 0.3 | .

# Next records.
# Value order: Ba CapD inh	AID504770
Cn1c(SCc2ccc(F)c3ccccc23)nc2ccccc2c1=O
  0.17	-0.65
Nc1ccccc1C(=O)N/N=C/c1cccc2ccccc12
  1.9	.
CC1(C)C=Cc2c(nc3ccccc3c2N)C1
  .	-1.4
CCCCS(=O)(=O)NNc1cc(C(F)(F)F)ccc1Cl
  .	-0.4
COc1cc2ccc(=O)oc2c(O)c1OCC=C(C)C
  -0.29	0
O=C1c2cccc3cccc(c23)C(=O)N1CC1CCN(S(=O)(=O)/C=C/c2ccccc2)CC1
  19	.
O=C(O)c1ccc(CNc2ccccc2)cc1
  0.11	0.3
CCOc1ccc(N(CC(=O)NCCSc2ccccn2)S(=O)(=O)c2ccc(Cl)cc2)cc1
  -0.12	.
N#CC(C#N)=Cc1cccn1-c1ccc(Cl)cc1
  -0.52	-0.5
COc1ccc(/C=C2\SC(=Nc3ccc(N4CCOCC4)cc3)N(C)C2=O)cc1
  0.15	-0.55
CC1Oc2ccccc2C=C1/C=C/C(=O)O (stereo not given)
  0.44	-0.9
Cc1ccc(COc2coc(CO)cc2=O)cc1
  -0.22	-0.65
Cn1cc(Br)c(N2C(=O)C=CC2=O)n1
  0.64	-4.2*
O=C(COc1ncnc2c(Cl)cc(Cl)cc12)c1ccc[nH]1
  .	-0.35
O=C(Nc1ccc(S(=O)(=O)C(F)F)cc1)c1ccccc1
  .	1.4
Cc1cc(N)n(C2CCN(C)CC2)n1
  .	-0.7
CCn1c(C(=O)NC2CCC(C)CC2)cc2sccc21 (stereo not given)
  0.71	-0.1
COc1ccccc1N=P12CN3CN(CN(C3)C1)C2
  .	-0.25
Cc1ccc(N2CCN(c3ccc(C)cc3)C2c2ccc(C)o2)cc1
  .	-0.45
N#Cc1ccc(N2CCN(C(=O)c3ccco3)CC2)cc1
  0.045	-0.3
O=[N+]([O-])c1cc2c(c([N+](=O)[O-])c1)NCCN=C2c1ccccc1
  -0.72	.
Cc1ccc2oc(=O)c3cc(C(=O)NC4CCCC4)sc3c2c1
  0.44	1.1
S=c1[nH]n(-c2ccc(Cl)cc2)c(=S)s1
  -0.41	-1.4&-0.8
O=C(O)CCc1nn2c(=O)c3ccccc3nc2s1
  -0.29	-0.2
Cc1ccc2nc(-c3cc4ccccc4o3)cc(C(=O)O)c2c1
  56	-0.55
Cc1ccc(C)n1-c1ccc(C(=O)OC2CCCCC2=O)cc1 (stereo not given)
  .	0.2
N#CC1=C(N)Oc2c(C=Nc3ccccc3)ccc(O)c2C1c1ccc([N+](=O)[O-])cc1 (stereo not given)
  0.075	.
Cc1cc(C)c2c(N)c(S(=O)Cc3ccc(Cl)cc3)sc2n1 (stereo not given)
  -0.97	-1.4
COc1ccc(S(=O)(=O)Nc2ncccc2OCc2cc(F)cc(F)c2)cc1
  1	0.95
CN(CC(=O)N1CCN(Cc2ccc3c(c2)OCO3)CC1)S(=O)(=O)c1cc(Cl)ccc1Cl
  -0.035	-0.9
O=C(Cn1nnc(-c2ccc(Cl)cc2)n1)NCCCN1CCOCC1
  .	-0.55
COC(=O)C1=C(N)N(c2ccc(S(N)(=O)=O)cc2)C2=C(C(=O)CC(C)(C)C2)C1c1ccc2c(c1)OCO2 (stereo not given)
  -0.38	.
Cc1[nH]c2ccccc2c1N=CN(C)C
  0.92	-0.95
CC(=O)NCc1nc2ccccc2n1CC(C)C
  0.81	-0.1
O=C(NNc1ccccc1)c1cnn2c(C(F)(F)F)cc(C(F)(F)F)nc12
  -0.035	-0.7
O=C(Nc1ccc(F)cc1)c1sccc1Oc1ccc([N+](=O)[O-])cc1
  -0.95	.
